GLA inh pH 4.5 = blocks human alpha-galactosidase A at pH 4.5; activity change, negative = inhibition, % at 105 µM; 230,000 tested, under 10 active; purified enzyme, 4-MU-alpha-Gal fluorescence, pH 4.5; P06280; inconclusive = small, poorly fitted or top-dose-only inhibition, or a rising curve; inactive = flat fitted curve, though single readings scatter; no compound was filed as active;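 further: 0% = full activity with enzyme and -100% = basal without enzyme; dose as in the result columns while the protocol names 77 µM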
Rango-impB inh = inhibitors of Rango-importin beta complex formation; Potency, µM (top dose mostly 92.2 µM), without a hit: at the top dose inhibition of complex formation; Q14974; Rango CFP/YFP FRET sensor + importin beta, 45 min; 340,000 compounds, 0.031% hits; active = rising FRET ratio curve, often small or poorly fitted; inconclusive = mostly compound fluorescence or quenching in the first reads; inactive = flat curves in all reads;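 further: potency means the concentration at half of the fitted maximal effect; 0% = DMSO wells and 100% = buffer wells lacking importin beta; nearly all actives have a fitted effect of over 15% in size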
Target sequence (Q14974 whole entry, looked up): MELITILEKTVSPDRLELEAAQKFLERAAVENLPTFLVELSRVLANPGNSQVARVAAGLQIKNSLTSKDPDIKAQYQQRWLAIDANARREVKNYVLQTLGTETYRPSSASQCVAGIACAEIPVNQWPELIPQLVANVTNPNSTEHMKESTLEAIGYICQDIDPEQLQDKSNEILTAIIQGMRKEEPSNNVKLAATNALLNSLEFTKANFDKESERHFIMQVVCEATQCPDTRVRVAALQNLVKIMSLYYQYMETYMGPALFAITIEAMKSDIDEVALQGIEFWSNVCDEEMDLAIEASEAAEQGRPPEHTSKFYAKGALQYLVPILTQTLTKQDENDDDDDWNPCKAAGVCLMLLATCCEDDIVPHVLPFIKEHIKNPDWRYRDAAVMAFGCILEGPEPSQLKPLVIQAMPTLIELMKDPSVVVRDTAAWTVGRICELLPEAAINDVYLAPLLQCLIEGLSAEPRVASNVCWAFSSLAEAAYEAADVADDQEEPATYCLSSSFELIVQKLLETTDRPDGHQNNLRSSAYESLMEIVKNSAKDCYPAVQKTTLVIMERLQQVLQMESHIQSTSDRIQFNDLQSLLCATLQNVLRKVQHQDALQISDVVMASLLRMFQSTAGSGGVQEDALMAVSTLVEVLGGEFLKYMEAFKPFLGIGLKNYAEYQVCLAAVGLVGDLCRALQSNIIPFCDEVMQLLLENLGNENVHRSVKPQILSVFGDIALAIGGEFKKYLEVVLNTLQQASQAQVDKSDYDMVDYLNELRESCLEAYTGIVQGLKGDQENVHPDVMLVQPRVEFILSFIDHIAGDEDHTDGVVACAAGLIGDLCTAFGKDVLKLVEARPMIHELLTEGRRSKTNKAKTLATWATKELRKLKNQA
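FRET biosensor (snurportin 1 IBB flanked by EYFP and cerulean), 50 nM, with compound 5 min, then 0.125 microM importin beta in PBS, 1 mM DTT, 0.02% Tween-20, 0.1% BSA. CFP/YFP ratio read after 45 min at room temperature; pre-read flags interference.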
Rango release inh = inhibitors of RanGTP-induced Rango-importin beta complex dissociation; AID 540253; Biochemical FRET Rango-importin beta, RanGTP-induced dissociation; 340,000 compounds, 0.071% hits; O95149+P62826; Potency, µM (doses to about 46.1 µM), for the others: at the highest dose activity change, negative = inhibition; active means falling FRET ratio curve, often poorly fitted, with flat reads before Ran was added; inconclusive means other falling curves, or compound fluorescence or quenching; inactive means flat or rising ratio curve;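 further: potency means the concentration at half of the fitted maximal effect; % of control where 0% means no effect; nearly all actives have a fitted effect of over 45% in size; -100% = wells without RanGTP and RCC1; the record marks most hits as doubtful in a second field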
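Rango (0.1 uM)–importin beta (0.25 uM) complex; RanGTP-RCC1 trigger; 45 min RT; CFP/YFP FRET read.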
miR-21 FLuc = miR-21 reporter, rising signal; HeLa miR-21 FLuc reporter, luciferase, 48 h; Potency, µM (doses to about 38.3 µM), for the others: at the top dose reporter change, positive = more light; 340,000 tested, under 10 active; active = well fitted rising curve with a large enough effect; inconclusive = small, poorly fitted or top-dose-only effect; inactive = no such curve, though single readings can be large or run the other way;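 further: % of control where 0% means no effect; miR-21 action dims this reporter so a rising signal means less miR-21 action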
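Compounds were titrated across several concentrations (up to approximately 40 uM) and incubated 48 hours with HeLa miR-21-FLuc reporter cells (miR-21 target sequence downstream of FLuc, endogenous miR-21). Readout was firefly luciferase luminescence after lytic detection reagent.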
* hit, by the source's call; ? = inconclusive; / = not tested or not shown; & = joins results of further samples; [ ] = another dose, or the depositor's remark. An excerpt, so the mix of outcomes need not match the whole.

molecule	GLA inh pH 4.5	Rango-impB inh	Rango release inh	miR-21 FLuc
O=C(Nc1ncnc2sc3c(c12)CCCC3)c1ccncc1	5	-0.9%	3%	-19%
CCOC(=O)c1cc2c(n(-c3ccc(Cl)cc3)c1=O)CCCC2=O	-8	0.5%	11%	-3%
CC(C)(C)C(=O)Cn1c(=N)n(Cc2ccccc2Cl)c2ccccc21	-6	?	-6%	-5%
NC(N)=N/N=C/c1ccc(Br)cc1	-12	1.8%	-17%	27%
Cc1sc2nc(CN3CCCC3)nc(N3CCN(S(=O)(=O)c4ccccc4)CC3)c2c1C	/	1.6%	13%	/
Cc1ccc(C(=O)Nc2ncc3c(n2)CC(c2ccco2)CC3=O)cc1 (configuration not stated)	-27	-2.2%	0%	-15%
Cc1ccc(CC(=O)N2CCOCC2)cc1	6	0.9%	-3%	-7%
COc1ccc(NC(=O)c2ccc(C)cc2Cl)c([N+](=O)[O-])c1	9	3.2%	1%	-46%
Cn1c(=O)c2c(-c3cccc(Br)c3)c(C#N)c(N)nc2n(C)c1=O	5	0.3%	4%	5%
C[C@H](NC(=O)c1nc[nH]c1C(=O)NCCCCCNC(=O)OC(C)(C)C)c1ccccc1	/	0.8%	0%	/
CC(C)COP(=O)(c1ccc(N(C)C)cc1)C(O)c1cccnc1 (configuration not stated)	3	1.1%	14%	-11%
CCN(C(=O)CSc1cccc[n+]1[O-])c1ccccc1	/	-0.9%	13%	/
CC(C)C[C@H](NC(=O)N1CC(=O)Nc2ccccc21)C(=O)N[C@H](Cc1ccccc1)C(=O)O	/	0.7%	0%	0%
CCc1cc2cc3c(cc2nc1SCC(=O)Nc1nccs1)OCO3	9	-0.6%	-19%	1%
CCCc1nc2sc3c(=O)n(N)cnc3c2c2c1CCCC2	-9	1.7%	6%	0%
O=C(CSc1ncnc2ccccc12)NCc1ccco1	-5	-1.9%	-10%	-4%
O=C(Cc1ccc(S(=O)(=O)N2CCOCC2)s1)N1CCN(S(=O)(=O)c2cccc([N+](=O)[O-])c2)CC1	/	0.1%	10%	/
COc1cccc(NC(=O)C(=O)N2CCOCC2)c1	1	5.5%	0%	-49%
CP(C)(=O)CCP(=O)(c1ccccc1)c1ccccc1	-5	-0.7%	14%	-9%
O=C(Nc1ccc(Cl)cc1-c1nc2ccccc2s1)c1ccco1	5	?	3%	-11%
COc1ccc(S(=O)(=O)N2CCc3ccccc32)cc1[N+](=O)[O-]	/	-1.0%	8%	20%
Cc1cc(Nc2ccccc2F)n2ncnc2n1	-12	3.3%	9%	-18%
O=C(Cn1cnc2ccccc21)Nc1ccc(C(=O)O)cc1	-10	2.3%	-16%	-3%
Cc1ccc(-c2nc(CSCC(=O)NCC3CCCO3)c(C)o2)cc1 (configuration not stated)	/	-3.7%	-1%	-5%
Cn1c2ccccc2c2nnc(SCC(=O)NC3CCCC3)nc21	/	-2.1%	7%	-6%

The final 3 entries of the part above lead into the next:
molecule	GLA inh pH 4.5	Rango-impB inh	Rango release inh	miR-21 FLuc
O=C(Cn1cnc2ccccc21)Nc1ccc(C(=O)O)cc1	-10	2.3%	-16%	-3%
Cc1ccc(-c2nc(CSCC(=O)NCC3CCCO3)c(C)o2)cc1 (configuration not stated)	/	-3.7%	-1%	-5%
Cn1c2ccccc2c2nnc(SCC(=O)NC3CCCC3)nc21	/	-2.1%	7%	-6%
Cc1c(OCC(F)(F)F)ccnc1CSc1nc2ccccc2[nH]1	5	2.2%	-10%	-42%
CCOC(=O)c1ccccc1NC(=O)CSc1nccn1C	0	-0.3%	-6%	-4%
O=S(=O)(NCc1ccc(Cl)cc1)c1ccc(Cl)nc1	-6	2.6%	4%	-2%
COc1ccccc1N(CC(=O)Nc1ccccc1C(=O)NC(C)C)S(C)(=O)=O	5	-3.4%	-4%	-1%
CNc1ccc([N+](=O)[O-])cc1-c1nc2ccccc2[nH]c1=O	?	2.5%	4%	-2%
COc1cccc(C(=O)OCC(=O)Nc2cc(C)c(C)cc2[N+](=O)[O-])c1	1	-2.2%	-5%	1%
CC(=O)N1CCN(c2ccc(S(=O)(=O)NCCN(C(C)C)C(C)C)cc2[N+](=O)[O-])CC1	4	-0.8%	1%	-4%
C[C@H](NC(=O)c1ccccc1Cl)C(=O)OCCOc1cccc(Cl)c1	-8	-0.6%	26%	-1%
CCCC(=O)Nc1ccc2c(c1)COC2=O	8	-2.1%	-4%	-1%
O=C1NC(=Nc2cccc(Cl)c2)SC1Cc1cccc(Cl)c1Cl (configuration not stated)	-1	2.2%	-6%	-11%
N#CC[C@H](c1ccccc1)N1CCN(Cc2ccccc2)CCC1=O	/	-2.6%	-4%	-1%
COc1ccc(CN(C)C(=O)CNC(=O)CNC(=O)c2ccc(Cl)cc2Cl)cc1F	/	-1.2%	15%	2%
COc1cc2ccccc2cc1C(=O)NC(=S)Nc1nnn(C)n1	-5	-3.8%	7%	-12%
Cc1ccc(S(=O)(=O)N(CC(=O)Nc2ccc(Cl)c([N+](=O)[O-])c2)C2CCCCC2)cc1	8	-4.4%	0%	?
c1ccc(-c2nc(C3CCCCC3)c3ccccc3n2)cc1	/	-0.9%	-12%	/
COc1ccc(-c2oc(/N=C/N3CCCC3)c(C#N)c2-c2ccc(OC)cc2)cc1	4	-3.9%	1%	-3%
Cc1onc(-c2c(Cl)cccc2Cl)c1C(=O)N1CCc2ccccc21	-3	1.8%	0%	2%
NC(=O)C1(c2ccccc2)CCC(=O)N1c1ccccc1 (configuration not stated)	4	-0.9%	-4%	-1%
CCc1ccc(OCCNC(=O)c2ccco2)cc1	/	5.2%	2%	-48%
COc1ccc2c(=O)c(-c3ccccc3)coc2c1	7	0.5%	7%	-30%
O=C(O)c1ccc2c(=O)n3c(nc2c1)/C(=C/c1cccc(Cl)c1Cl)CCCC3	4	-0.2%	-4%	-26%
Cc1csc(=O)n1CC(=O)OCC(=O)NNC(=O)c1ccc([N+](=O)[O-])cc1	/	1.1%	4%	/
COCCN(C(=O)CSc1nnc(C)n1Cc1ccccc1)c1c(N)n(CC(C)C)c(=O)[nH]c1=O	8	-0.5%	0%	1%
N#Cc1cc2c(=O)n3ccccc3nc2n(CCCn2ccnc2)c1=N	-10	?	?	-8%
Cn1c(=O)c2nc(SCc3ccccc3)n(C)c2n(C)c1=O	/	1.3%	1%	/
O=C(CNC(=O)/C=C/c1ccco1)N=Nc1c(O)[nH]c2ccccc12	/	-3.5%	?	-3%
COc1ccc(NC(=O)c2ccco2)cc1NC(=O)c1cccnc1	-6	-1.2%	-7%	-5%
CCOC(=O)CN(C(=O)CSc1nnc2c(n1)[nH]c1c(C)cc(C)cc12)c1ccccc1	1	/	/	14%
O=C1C2CCC(C(O)C2)N1Cc1ccccc1 (configuration not stated)	-21	0.8%	-4%	-10%
CC(C)c1c(C(=O)N/N=C/c2ccc(OCc3ccccc3)cc2)nnn1-c1nonc1N	/	-1.7%	0%	-19%
O=[N+]([O-])c1cccc(Nc2nc(Cl)nc(Cl)n2)c1	3[21.1 µM]	2.9%	-2%	-1%
O=C(NCCCN1CCc2ccccc2C1)Nc1ccc(Cl)cc1	2	-1.2%	2%	-19%
O=C1NCCN(Cc2ccoc2)C1CC(=O)N(CCO)Cc1ccccc1 (configuration not stated)	2	2.0%	1%	0%
c1ccc(-c2cnc(-c3cccnc3)o2)cc1	-4	2.1%	0%	-63%
COc1ccc(CCC(=O)N2CCN(S(=O)(=O)c3cccs3)CC2)cc1	/	-3.4%	10%	/
CCCNC(=O)CCn1cc(-c2ccc(OC)cc2)nc1CCN	/	0.0%	-5%	/
COc1ccc(Nc2oc(COc3cccc(C)c3)nc2C#N)cc1	0	-0.9%	9%	15%
Cc1ccc(C)c(OCc2nnc(N)s2)c1	-6	3.2%	3%	-8%
CC(C)NC(=O)NC(=O)COc1ccc(Br)cc1Br	-3	0.8%	20%	-58%
CC(C(=O)N(C1CC1)C1(C(=O)Nc2ccccc2)CCCC1)N1C(=O)c2ccccc2C1=O (configuration not stated)	7	-0.4%	-12%	-1%
Cc1cc(OCC(=O)NCC2CCC(C(=O)O)CC2)c2c(C)c(Cc3ccccc3)c(=O)oc2c1 (configuration not stated)	/	-0.7%	4%	0%
CC1CN(C(=O)c2cccc(S(=O)(=O)Nc3ccccc3Cl)c2)CC(C)O1 (configuration not stated)	/	2.9%	21%	4%
COc1cccc(CC(=O)n2nc(N)c3cc4ccc(OC)cc4nc32)c1	4	4.1%	-7%	11%
COC(=O)c1sccc1NC(=O)Cn1nnc(-c2ccccc2C)n1	-6	-0.6%	24%	-8%
COc1ccc(C(=O)NC2(C(F)(F)F)C(=O)Nc3c2c(=O)[nH]c(=O)n3CCc2ccc(OC)c(OC)c2)cc1 (configuration not stated)	-20	-0.2%	-5%	-1%&1%
CCOc1ccc(CN2CCN(Cc3cccc4c3OCO4)CC2CCO)cc1 (configuration not stated)	2	-1.8%	-10%	0%
CCN(CC)c1ccc(N=Cc2ccc([N+](=O)[O-])o2)cc1	-13	?	-29%	25%
COc1cccc(CN(C)CC(=O)NCc2ccccc2Cl)c1OC	-4	-0.1%	19%	-9%
Cc1oc(-c2ccc(-c3ccccc3)cc2)nc1CN1CCN(CC(=O)N(C)C)CC1	-8	-0.9%	11%	-15%
CC(C)CNC(=O)c1cccc(NC(=O)C2CCCO2)c1 (configuration not stated)	-17	0.1%	2%	-1%

Next section
molecule	GLA inh pH 4.5	Rango-impB inh	Rango release inh	miR-21 FLuc
COc1ccc(Nc2cc(C(=O)NCCCN3CCN(C)CC3)c3ccccc3n2)cc1OC	-2	-5.4%	30%	-12%
O=C(Nc1ccccc1)c1ccc(N2CCN(c3ccccn3)CC2)c(S(=O)(=O)N2CCOCC2)c1	-8	1.7%	1%	-1%
COC(=O)CN(c1ccccc1OC)S(=O)(=O)c1ccccc1	-10	3.0%	9%	-3%
Cc1cccc(NC(=O)CCC(=O)NCCO)c1	3	-4.0%	28%	-6%
CN1CCN(C(=S)c2cn(CCOc3ccccc3F)c3ccccc23)CC1	-12	-2.3%	-10%	-18%
COCc1c(C(=O)OCC(=O)N2c3ccccc3CC2C)oc2ccccc12 (configuration not stated)	3	-0.7%	-12%	-6%
CCCCOC(=O)CSc1nc2c(cc1C#N)C(=O)CC(C)(C)C2	-12	-0.3%	7%	-30%
Cc1cccc(C)c1NS(=O)(=O)c1c(C(=O)N2CCCCC2)c(C)n(C)c1C	/	-0.1%	5%	-1%
CN(C)CCCOC(=O)c1ccccc1	9	-0.3%	0%	2%
CCOC(=O)/C=c1\s/c(=C\c2ccc3cc(OC)ccc3c2)c(=O)n1CC(=O)NCc1ccc2c(c1)OCO2	6	?	?	4%
O=C(NCCN1CCNCC1)c1ccccc1O	/	-2.5%	21%	/
COc1ccc([C@H]2CC(=O)C=C(c3ccc(-c4ccccc4)cc3)C2)cc1OC	/	-0.3%	3%	/
CCNC(=O)COC(=O)c1cc(C)n(-c2ccccc2)c1C	-1	4.5%	3%	-33%
Cn1c(=O)c2c(nc(SCc3ccc(C(=O)O)cc3)n2C)n(C)c1=O	/	-0.1%	-4%	2%
O=C(NNC(=O)c1cccs1)c1ccc(Cl)nc1	/	8.4%	12%	/
Cc1ccc(C(=O)O/N=C(\N)c2ccccc2)c(Cl)c1	0	8.0%	?	7%
COCCCNC(=O)c1ccc2c3c(onc13)-c1ccccc1C2=O	-6	-1.2%	-8%	-28%
Cc1ccc(S(=O)(=O)NCCN2CCOCC2)cc1	10	0.6%	1%	-2%
O=C(c1cc2ccccc2c(=O)o1)N1CCc2ccccc2C1	11	-4.6%	8%	-14%
COc1ccccc1CN(C)C(=O)CNC(=O)c1cccc(Cl)c1	/	-0.9%	-4%	-6%
O=C(CN1C(=O)NC2(CCCC2)C1=O)NNC(=O)c1ccc(Cl)cc1	/	2.4%	-9%	/
